LT uptake inh: blocks cellular internalization of anthrax lethal toxin | Cells, anthrax lethal toxin internalization, FRET ratio (460/530) | Potency, µM (titrated, usually from 40 µM), inactives show at the top dose activity change, negative = inhibition, actives largely listed as inhibitors | 70,000 compounds, 0.67% hits; active = well fitted falling ratio curve with the 530 nm signal flat; inconclusive = other ratio curves, or a change in one channel alone; inactive = flat curves in the ratio and both channels; the % refers to the ratio; note: % is set by controls: 0 for no effect and ±100 for the full control effect; nearly all actives have a fitted effect of over 50% in size; tested in ME-180 cells; beta-lactamase reporter
SmPrx2 inh: Schistosoma mansoni Prx2 inhibition; S. mansoni Prx2 activity coupled to TGR/GSH (TGR is thioredoxin glutathione reductase), NADPH fluorescence loss, qHTS; some inactives read as strong as hits; Potency, µM; 65,000 compounds, 0.07% hits; AID 448; active means full or partial inhibition curve with a strong effect at the top dose; inconclusive means weaker partial or single-point curve; inactive means no accepted curve; note: series up to 57 µM; many of its hits are not listed in these tables
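Coupled assay in which S. mansoni TGR passes NADPH reducing equivalents via glutathione to Prx2, which reduces H2O2. Compounds were preincubated 15 min at room temperature with 25 nM TGR/50 nM Prx2 mix. Kinetic NADPH fluorescence loss (ex 365/em 450 nm) was monitored.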
* = called active by the depositor; ? = inconclusive; · = no result given; & = joins results of further samples; [ ] = dose if it differs, or a comment. Potency is the fitted concentration of half-maximal effect. These rows are one share of the data; count on the stated rates, not on these rows.

SMILES	LT uptake inh	SmPrx2 inh
CC(C)CNS(=O)(=O)c1ccc(CCC(=O)NCC2CCCO2)cc1 (centres undefined)	-7%	>57
CCOC(=O)C1=C(CNC2CCCCC2)NC(=O)NC1c1cc(C)ccc1C (centres undefined)	2%	>57
O=C1Nc2ccccc2C12OCC(COc1ccc(Cl)cc1)O2 (centres undefined)	-28%	>57
COCCCNc1nc2c(c(=O)[nH]c(=O)n2C)n1CC(O)COc1ccccc1C (centres undefined)	-12%	>57
COc1ccc(O[C@H]2C=C[C@@H](c3ccccc3)O[C@H]2COC(=O)CC/C(C)=N\O[C@@H](C)c2cn([C@H](CO)Cc3ccccc3)nn2)cc1	-9%&-4%[8 µM]	·
COC(=O)c1ccc(Oc2cc(C)nc(-n3nc(C)cc3C)n2)cc1	?	>57
Cc1cc(NC(=O)c2ccc(COc3ccc(Cl)c(C)c3)o2)no1	5%	>57
CC1(C)CC(N(Cc2cccs2)C(=O)c2ccco2)CCO1 (centres undefined)	2%	>57
CCCCS(=O)CC(COCc1ccccc1)OC(=O)CSc1nc(C)cc(C)n1 (centres undefined)	6%	·
CC(=O)CSc1ncnc2nc[nH]c12	-21%	>57
CCC1CCCCN1CCCNC(=O)C1CCC(=O)N1Cc1ccc(C)cc1 (centres undefined)	7%	>57
COc1ccc(CCNC(=O)c2ccco2)cc1	-18%	·
O=C(c1ccccc1F)N1CCN(CC2CC3C=CC2C3)CC1 (centres undefined)	-3%	>57
Cc1ccc(C)c(N(C(=O)Cn2nnc3ccccc32)C(C(=O)NCc2ccco2)c2ccncc2)c1 (centres undefined)	-10%	>57
COc1ccccc1N1CCN(C/C(C)=C/c2ccccc2)CC1	?	·
O=C(c1csnn1)N1CCC2(CC1)CCN(c1ccccc1)CC2	12%	>57
Cc1cc(C(=O)N2CCN(Cc3ccc4c(c3)OCO4)CC2)on1	-15%	>57
Cc1ccc(OCC(O)CN2C(=O)NC(C)(C)C2=O)cc1C (centres undefined)	0%	>57
CCNCCNC(=O)c1c(O)c2c([nH]c1=O)CCCC2	2%	>57
COc1ccccc1NC(=O)N1CCCC(C(=O)Nc2cccc(C)c2C)C1 (centres undefined)	2%	>57
COc1cccc(C2NC(C)(C(=O)O)C3C(=O)N(C(C)C)C(=O)C23)c1O (centres undefined)	-1%	>57
c1cnc2c(OCc3nc4ccccc4[nH]3)cccc2c1	11%	>57
Nc1ncc(Br)cc1S(=O)(=O)NCCC(=O)N1CCN(c2ncccn2)CC1	-12%	>57
CCN1CCN(CC(=O)Nc2ccc3c(c2)OCCO3)C(=O)C1=O	4%	>57
CCN1C(=O)C2(Nc3ccccc3-c3nc4ccccc4n32)c2cc(OC)ccc21 (centres undefined)	·	>57
CCOC(=O)CC(SP(=O)(OC)OC)C(=O)OCC (centres undefined)	26%	·
COc1ccccc1NC(=O)CSCC(N)=O	?	>57
O=S(=O)(NCc1ccco1)c1cccc(S(=O)(=O)N2CCCCC2)c1	-16%	>57
Cn1c(=O)c(-c2ccccc2)nc2cncnc21	1%	>57
N#Cc1nc(-c2ccc(Cl)cc2)oc1NCc1cccc2c1OCO2	-3%	>57
COC(=O)c1sc(NC(=O)c2cnccn2)c(C(=O)OC)c1C	-22%	>57
CCSc1nc2c(c(=O)n1Cc1ccccc1)SC(C)C2 (centres undefined)	-7%	>57
O=C(NCCCN1CCN(CCCNC(=O)c2ccccc2F)CC1)c1ccccc1F	?	>57
COc1ccc(-c2nnn(CC(=O)N(CC(=O)NC3CCCC3)c3cccc(C)c3)n2)cc1OC	6%	>57
O=[N+]([O-])c1ccc2nc(N3CCNCC3)ccc2c1	9%	>57
O=c1[nH]c(=O)n(C2CCCCCC2)c(O)c1C=NCC1CCCO1 (centres undefined)	-6%	>57
CCN(CC)S(=O)(=O)c1ccc(NC(=O)c2c(-c3ccccc3)noc2C)cc1	-12%	>57
Cc1sc(NC(=O)c2ccc(Cl)s2)c(C(N)=O)c1C	2%	>57
O=C(Nc1nccs1)c1cccc(S(=O)(=O)N2CCOCC2)c1	-16%	>57
CCOC(=O)CSc1nnc2n1C(C)(C)Cc1ccccc1-2	-6%	>57
CCCCN1C(=O)c2ccccc2C1C(=O)NC1CCCC1 (centres undefined)	4%	>57
Cc1ccc(C)c(NC(=O)CSc2nc3c(c(=O)n2C)SC(C)C3)c1 (centres undefined)	4%	>57
CCCCc1c(O)nc(SCC(=O)N2CCCCC2)n(-c2ccccc2C)c1=O	-4%	>57
COC(=O)C1=C(CSc2nc3ccccc3o2)NC(=O)NC1c1cc(C)ccc1C (centres undefined)	?	>57
O=C1OC(c2ccc(Br)cc2)=N/C1=C\N1CCCCC1	9%	>57
Cc1cccnc1NCc1ccc(O)c2ncccc12	?	>57
N#Cc1nc(-c2ccccc2F)oc1NC1CCCCC1	?	>57
Cc1cccc(C(=O)NCc2nnc(SCC(=O)N3CCN(c4ccccc4)CC3)n2C)c1	-14%	>57

Entries above that contain two or more sulfur atoms:
SMILES	LT uptake inh	SmPrx2 inh
CCCCS(=O)CC(COCc1ccccc1)OC(=O)CSc1nc(C)cc(C)n1 (centres undefined)	6%	·
O=S(=O)(NCc1ccco1)c1cccc(S(=O)(=O)N2CCCCC2)c1	-16%	>57
CCSc1nc2c(c(=O)n1Cc1ccccc1)SC(C)C2 (centres undefined)	-7%	>57
Cc1sc(NC(=O)c2ccc(Cl)s2)c(C(N)=O)c1C	2%	>57
O=C(Nc1nccs1)c1cccc(S(=O)(=O)N2CCOCC2)c1	-16%	>57
Cc1ccc(C)c(NC(=O)CSc2nc3c(c(=O)n2C)SC(C)C3)c1 (centres undefined)	4%	>57

Further entries:
SMILES	LT uptake inh	SmPrx2 inh
CN1CCN(c2nc3c(c(=O)[nH]c(=O)n3C)n2Cc2cccc3ccccc23)CC1	-3%	>57
OCCN(CCO)c1ncnc2nc[nH]c12	-5%[8 µM]	>57
CC(=O)c1ccc(NC2OC(CO)C(O)C(O)C2O)cc1 (centres undefined)	2%	>57
COc1cccc(CNc2nn[nH]n2)c1OC	-6%	>57
O=C(CCn1c(=S)[nH]c2ccccc2c1=O)NCCCN1CCCC1=O	19%	>57
CCCCNC(=O)CCCCCNS(=O)(=O)c1ccc(OC)cc1	?	>57
COc1cc(NC(=O)CCc2ccccc2)nc(OC)n1	?	>57
CCOC(=O)C1CCCN(S(=O)(=O)Cc2ccccc2)C1 (centres undefined)	0%	>57
COc1ccccc1-c1cc(C(=O)N2CCN(c3ccc(F)cc3)CC2)no1	-1%	>57
Cc1ccccc1-n1c(O)c(C=Nc2ccc3c(c2)OCO3)c(=O)[nH]c1=O	16%	>57
O=C1c2ccccc2S(=O)(=O)N1Cc1nc2ccccc2s1	-16%	>57
CCOC(=O)N1CCC(NC(=O)c2cc(S(=O)(=O)N3CCc4ccccc43)cn2C)CC1	4%	>57

Looked up above:
SmPrx2 inh result of `CCCCNC(=O)CCCCCNS(=O)(=O)c1ccc(OC)cc1` is entered as >57
LT uptake inh result of `Cc1ccccc1-n1c(O)c(C=Nc2ccc3c(c2)OCO3)c(=O)[nH]c1=O` is entered as 16%

The list continues:
SMILES	LT uptake inh	SmPrx2 inh
CCC(=NCc1ccco1)c1c(O)n(-c2ccccc2)c(=O)[nH]c1=O	-6%	>57
COc1ccc(CCn2c(C)cc3c(c2=O)C(c2ccncc2)C(C#N)=C(N)O3)cc1OC (centres undefined)	?	>57
CCOC(=O)c1sc(NC(C)=O)c(C(=O)OCC)c1C	·	>57
FC(F)(F)c1cc(CN2CCCC3(CCNCC3)C2)cc(C(F)(F)F)c1	3%	>57
CCOC(=O)c1cnn2c(C)cc(-c3ccccc3)nc12	0%	>57
Cc1cc(C)nc(-n2nc(C)cc2NC(=O)c2cccc(S(=O)(=O)N(C)C)c2)n1	-2%	>57
O=C(NC12CC3CC(CC(C3)C1)C2)N1CCC(n2nnc3ccccc32)CC1	-12%	>57
COc1ccc(-c2nc3cnc(N4CCN(C)CC4)nc3n(Cc3ccc(F)cc3)c2=O)cc1	?	>57
COc1ccccc1Nc1nc(N)nc(CN2CCC(Cc3ccccc3)CC2)n1	-8%	>57
O=C(NC1CCCCC1)C1CCCN(S(=O)(=O)c2cccs2)C1 (centres undefined)	-1%	>57
Cc1ccc(-n2nc3c(c2NC(=O)c2ccc4c(c2)OCO4)CSC3)cc1	22%	>57
Cn1c(=O)c2c(nc(CN3CCN(c4ccccc4)CC3)n2Cc2ccccc2Cl)n(C)c1=O	?	>57
CCOC(=O)CSc1nnc(Cc2cc(=O)[nH]c(=O)[nH]2)n1-c1ccc(Cl)cc1	13%	>57
CN(C)C=Nc1ncc2c3ccccc3n(CCN(C)C)c2c1C#N	17%	>57
COCCn1c(=O)c(-c2ccc(F)cc2)nc2cnc(Nc3cccc(OC)c3)nc21	?	>57
Cc1cc(C(=O)CSc2nnc(-c3ccco3)o2)c(C)n1Cc1ccco1	-6%	>57
COCCNC(=O)c1cnn2c(C(F)(F)F)cc(-c3ccc4c(c3)OCO4)nc12	?	>57
C1CCC2(CC1)OCC1(CO2)COC2(CCCCC2)OC1	-3%	>57
CCc1nc(C)ccc1OCC(=O)NCCCN(C)C	5%	>57
Cc1cnn(C(=S)NCc2ccco2)c1	5%	>57
Cc1occc1C(=O)Nc1nccs1	-13%	>57
O=C(Nc1nnc(-c2ccncc2)s1)C1CCCO1 (centres undefined)	-5%	>57
N#Cc1nc(COc2ccc(Cl)cc2)oc1N1CCCCCC1	-22%	>57
CCOc1ccc(OCC)c(NC(=O)CSc2nnc(Cn3cnc4ccccc43)n2C)c1	10%	>57
CCOC(=O)COn1c(=O)c(=O)n(OC)c2ccccc21	-7%	>57
O=C(C1CCC(Cn2c(=S)[nH]c3ccccc3c2=O)CC1)N1CCOCC1 (centres undefined)	?	>57
Cc1cc(C(=O)N2CCN(C(c3ccccc3)c3ccccc3)CC2)on1	-2%	>57
CNc1ncnc2c1ncn2[C@@H]1O[C@H](CO)[C@@H](O)[C@@H]1O	-16%[3.58 µM]	>57
NCCC[C@@H](CC(=O)N[C@@H]1CCCC[C@H]1C(=O)N[C@H](CC(=O)N[C@@H](CCC(=O)O)CC(=O)O)Cc1ccccc1)NC(=O)C[C@H](Cc1ccccc1)NC(=O)[C@@H]1CNCC[C@H]1N	-17%	>57
CS(=O)(=O)NCc1csc(-c2ccccc2)n1	7%	>57
O=C(Nc1ccc2snnc2c1)N1CCOCC1	-6%	>57
CC(C)(CO)N1CCN(C(=S)Nc2ccccc2)CC1	-4%[8 µM]	>57
CCC(Oc1ccccc1)C(=O)Nc1ccc(-c2nnc(-c3ccco3)o2)cc1 (centres undefined)	-20%	>57
Cc1cccc(OCC(=O)Nc2cccc(-c3nnc(-c4ccccc4)o3)c2)c1C	-15%	>57
O=C(O)CC[C@@H](C(=O)O)N1C(=O)c2ccccc2C1=O	-11%[8 µM]	>57&>57
O=C(OCc1cc2ccccc2[nH]c1=O)C1CCCCC1	?	>57
CCOP(C)(=O)C1(C(=O)OCc2ccccc2)CC1 (centres undefined)	8%	·
CN(C)C(CNC(=O)CCCc1c[nH]c2ccccc12)c1ccco1 (centres undefined)	7%	>57
CCOC(=O)CSc1nnc(CNC(=O)c2cccs2)n1-c1cc(OC)ccc1OC	8%	>57
O=C(CCC1CCCC1)Nc1ccc(Br)cn1	-8%	>57
O=C(O)c1ccc(CSCc2ccco2)cc1	-8%	·
Cc1ccc(CN2CCN(CC(=O)NCc3ccc(Cl)cc3)C2=O)cc1	6%	>57
CC(C1CC1)N(C(=O)c1ccccc1O)c1ccccc1 (centres undefined)	2%	>57
Cc1ccsc1C=Nc1c(C)n(C)n(-c2ccccc2)c1=O	6%	>57
Cn1cnnc1Sc1nc2c(c(=O)n(C)c(=O)n2C)n1Cc1ccccc1Cl	15%	>57
C[C@@H]1C[C@H]2[C@H]3C[C@@H](F)C4=CC(=O)C=C[C@]4(C)[C@@]3(Cl)[C@@H](O)C[C@@]2(C)[C@@H]1C(=O)COC(=O)C(C)(C)C	?	>57
CCCCCn1c(SCC2CCCO2)nc2cc(C(=O)N3CCC(C(N)=O)CC3)ccc2c1=O (centres undefined)	?	>57
COc1cccc(-c2ccc3ncnc(NCCNC(C)=O)c3c2)c1	-10%	>57
C[C@@]12CC[C@H]3[C@H](CC=C4C[C@@H](O)CC[C@@]43C)[C@@H]1CC[C@@H]2N(CCO)CCO	?	>57
CCOc1ncccc1C(=O)OCc1nnc(-c2ccccc2)o1	0%	>57
C/[N+]([O-])=C1\Cc2ccccc2C1=O	-6%	>57
O=C(c1ccco1)N1CCN(C(c2ccc(Cl)cc2)c2nnnn2CC2CCCO2)CC1 (centres undefined)	23%	>57
Cc1c(NC(=O)C(C)N2CC(C)OC(C)C2)c(=O)n(-c2ccccc2)n1C (centres undefined)	17%	>57
CCOC(=O)c1cccc(NC(=O)c2cccnc2)c1	-10%	>57
CC(C)Cn1c(CN2C(=O)c3ccccc3C2=O)nc2ccccc2c1=O	12%	·
NC(=O)SCC(=O)Nc1ccc(Cl)c(Cl)c1	-11%	·
CN1CCN(/C=N/c2c(C#N)cnn2Cc2ccccc2)CC1	-6%	>57

Sorted by heavy-atom count (rising): five of the compounds above
SMILES	LT uptake inh	SmPrx2 inh
CC(=O)CSc1ncnc2nc[nH]c12	-21%	>57
COc1ccc(CCNC(=O)c2ccco2)cc1	-18%	·
CCOC(=O)c1cccc(NC(=O)c2cccnc2)c1	-10%	>57
CCOC(=O)C1CCCN(S(=O)(=O)Cc2ccccc2)C1 (centres undefined)	0%	>57
O=C(CCn1c(=S)[nH]c2ccccc2c1=O)NCCCN1CCCC1=O	19%	>57
